Bioassay records: PubChem BioAssay, Broad Institute
Myc binder = binders of human c-Myc; P01106; AID 624141; calls only; small molecule microarray, His-c-Myc binding, anti-His fluorescence; 17,000 tested, 1.5% active;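 active = spot fluorescence over background with P-value below 7% in all four replicate spots, showing protein binding; compounds were printed on slides so no solution concentration is given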;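 note: score is binary with 100 for all four spots passing and 0 otherwise; about 2 pmol printed per array spot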
mut p53 SMM = binders of human mutant p53; small molecule microarray binding, anti-GST fluorescence; calls only; 17,000 tested, 0.4% active; AID 624136;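 active = compounds whose four printed spots each glow above background more than chance allows, each with a p-value under 7%; compounds were printed on slides so no solution concentration is given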;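 note: about 2 pmol printed per array spot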
STAT3 binder = STAT3 (human) binding. P40763. Small molecule microarray, His-STAT3 binding, anti-His fluorescence. calls only. 17,000 tested, 0.2% active;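 active = compounds whose four printed spots each show fluorescence over background unusually high for their array block, chance value under 7%; compounds were printed on slides so no solution concentration is given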;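 note: about 2 pmol printed per array spot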
Target sequence (P40763 whole entry, looked up): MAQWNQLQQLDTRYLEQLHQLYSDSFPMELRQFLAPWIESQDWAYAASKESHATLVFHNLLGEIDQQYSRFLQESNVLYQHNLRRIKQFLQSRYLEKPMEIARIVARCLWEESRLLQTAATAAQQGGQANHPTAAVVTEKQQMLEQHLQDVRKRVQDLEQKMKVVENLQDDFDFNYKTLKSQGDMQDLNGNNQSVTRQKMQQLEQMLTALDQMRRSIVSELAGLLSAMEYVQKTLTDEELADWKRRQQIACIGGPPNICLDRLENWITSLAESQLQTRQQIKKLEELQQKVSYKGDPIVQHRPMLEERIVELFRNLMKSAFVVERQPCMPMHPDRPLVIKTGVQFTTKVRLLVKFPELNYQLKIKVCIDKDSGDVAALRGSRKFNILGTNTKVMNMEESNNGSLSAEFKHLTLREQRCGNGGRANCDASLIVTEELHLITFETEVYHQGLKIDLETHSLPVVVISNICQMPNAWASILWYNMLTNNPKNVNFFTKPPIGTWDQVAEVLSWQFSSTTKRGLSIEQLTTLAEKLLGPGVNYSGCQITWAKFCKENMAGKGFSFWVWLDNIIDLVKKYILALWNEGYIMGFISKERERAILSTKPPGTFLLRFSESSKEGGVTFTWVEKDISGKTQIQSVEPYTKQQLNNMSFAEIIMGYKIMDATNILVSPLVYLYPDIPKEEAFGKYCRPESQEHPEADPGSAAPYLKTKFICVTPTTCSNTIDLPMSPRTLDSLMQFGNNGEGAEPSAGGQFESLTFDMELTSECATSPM
ID4 SMM = ID4 (human) binding; calls only; P47928; 31,000 tested, 1.2% active; small molecule microarray, Flag-ID4 binding, fluorescence F/B;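 active = spot signal over background at p below 0.07 in all four prints; compounds were printed on slides so no solution concentration is given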;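 note: a binder raises fluorescence above local background on the spot; about 2 pmol printed per array spot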
Target sequence (P47928 whole entry, looked up): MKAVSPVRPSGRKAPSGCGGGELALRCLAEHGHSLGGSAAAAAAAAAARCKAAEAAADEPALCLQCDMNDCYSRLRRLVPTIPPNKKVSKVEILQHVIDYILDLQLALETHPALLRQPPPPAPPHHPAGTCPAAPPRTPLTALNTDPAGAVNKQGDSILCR
Calls only; i = inactive; nt = no result given; + = active, no number. Some of the compounds tested (hit frequency here may not be typical).

SMILES | Myc binder | mut p53 SMM | STAT3 binder | ID4 SMM
Cc1noc(C)c1S(=O)(=O)Nc1cccc2c1O[C@@H](CN(C)Cc1ccc(Cl)c(Cl)c1)[C@@H](C)CN([C@@H](C)CO)C2=O | i | i | i | i
CC(C)NC(=O)Nc1ccc2c(c1)C(=O)N([C@@H](C)CO)C[C@H](C)[C@@H](CN(C)C(=O)CCCN(C)C)OCCCC[C@@H](C)O2 | i | i | i | i
COc1c(C=O)c(O)cc2c1C(=O)c1ccccc1C2=O | + | i | i | i
C[C@@H]1CN([C@@H](C)CO)C(=O)CCCn2nncc2CO[C@@H]1CN(C)C(=O)Nc1ccc(C(C)(C)C)cc1 | i | i | i | i
C[C@H](CO)N1C[C@H](C)[C@H](CN(C)S(=O)(=O)c2cccs2)Oc2ccc(NC(=O)CCN3CCOCC3)cc2CC1=O | i | i | i | i
COc1ccc(CN(C)C[C@@H]2Oc3ccc(NC(=O)Nc4cccc5ccccc45)cc3CC(=O)N([C@H](C)CO)C[C@@H]2C)cc1 | i | i | i | i
COc1cc2occ(-c3ccc4c(c3)OCO4)c(=O)c2c(OC)c1OC | i | i | i | i
CNC[C@@H]1Oc2c(NS(=O)(=O)c3ccc(Cl)cc3)cccc2C(=O)N([C@@H](C)CO)C[C@@H]1C | i | i | i | i
C[C@H]1CN([C@@H](C)CO)C(=O)c2cccc(NC(=O)C3CCOCC3)c2O[C@H]1CN(C)S(=O)(=O)c1ccc(Cl)cc1 | i | i | i | i
CC(C)NC(=O)N(C)C[C@H]1OCCCC[C@@H](C)Oc2ccc(NS(C)(=O)=O)cc2C(=O)N([C@H](C)CO)C[C@@H]1C | i | i | i | i
Cc1c(NC(=O)C(C)Oc2ccc(Cl)cc2Cl)cccc1-c1nc2ccccc2o1 (configuration not stated) | i | i | i | i
Cc1cc(C(=O)Nc2cccc3c2O[C@H](CN(C)S(=O)(=O)c2cccs2)[C@H](C)CN([C@@H](C)CO)C3=O)n(C)n1 | i | i | i | i
C[C@@H]1CN([C@@H](C)CO)C(=O)CCCn2cc(nn2)CO[C@H]1CN(C)C | i | i | i | i
Cc1ccc(S(=O)(=O)NCC(C)O)cc1-c1nnc2c3ccccc3c(C)nn12 (configuration not stated) | i | i | i | i
CNC[C@H]1Oc2c(NC(=O)c3ccncc3)cccc2C(=O)N([C@@H](C)CO)C[C@H]1C | i | i | i | i
COc1ccc(C(=O)NCCc2ccccc2)cc1Cl | i | i | i | i
CC(C)(C)Nc1nc(SCC(=O)Nc2ccccc2)nc(N2CCOCC2)n1 | i | i | i | i
CN1CCN(C(=O)CN(c2ccc(I)cc2)S(=O)(=O)c2ccccc2)CC1 | i | i | i | i
CC(NS(=O)(=O)c1ccccc1)C(=O)Nc1ccccc1C(F)(F)F (configuration not stated) | i | i | i | i
C[C@H](CO)N1C[C@H](C)[C@H](CN(C)S(=O)(=O)c2ccc(F)cc2)Oc2ccc(NS(=O)(=O)c3ccccc3)cc2CC1=O | i | i | i | i
COC(=O)c1cc(NC(=O)CC2SCCNC2=O)cc(C(=O)OC)c1 (configuration not stated) | i | i | i | i
CN1[C@@H](CC(=O)c2ccccc2)CCC[C@H]1C[C@H](O)c1ccccc1 | i | i | i | i
C[C@@H]1CN([C@H](C)CO)C(=O)c2cccc(NC(=O)C3CC3)c2O[C@H]1CN(C)C | i | i | i | i
COc1ccc(S(=O)(=O)N(C)C[C@H]2Oc3ccc(NC(=O)C4CC4)cc3C(=O)N([C@@H](C)CO)C[C@H]2C)cc1 | i | i | i | i
COc1cc2ccc(=O)oc2cc1OCC(O)C(C)(C)O (configuration not stated) | i | i | i | i
C=CCNC(=O)[C@@H]1[C@H]2C(=O)O[C@H](c3ccccc3)[C@H](c3ccccc3)N2[C@H](c2ccc(OCCO)cc2)[C@@]12C(=O)Nc1ccccc12 | i | i | i | nt
CC/C=C\C[C@@H]1C(=O)C=C[C@@H]1CCCCCCCC(=O)O | i | i | i | nt
CC(C)NC(=O)Nc1ccc2c(c1)C(=O)N([C@@H](C)CO)C[C@H](C)[C@@H](CN(C)S(C)(=O)=O)OCCCC[C@H](C)O2 | i | i | i | nt
COc1ccc(S(=O)(=O)N(C)C[C@@H]2Oc3c(NC(=O)NC4CCCCC4)cccc3C(=O)N([C@@H](C)CO)C[C@H]2C)cc1 | i | i | i | i
C[C@@H]1CN([C@@H](C)CO)C(=O)Cc2cc(NC(=O)Nc3ccc(F)cc3)ccc2O[C@H]1CN(C)C(=O)NC1CCCCC1 | i | i | i | i

As a short view, 4 of the compounds above.
SMILES | Myc binder | mut p53 SMM | STAT3 binder | ID4 SMM
Cc1noc(C)c1S(=O)(=O)Nc1cccc2c1O[C@@H](CN(C)Cc1ccc(Cl)c(Cl)c1)[C@@H](C)CN([C@@H](C)CO)C2=O | i | i | i | i
CC(C)NC(=O)Nc1ccc2c(c1)C(=O)N([C@@H](C)CO)C[C@H](C)[C@@H](CN(C)C(=O)CCCN(C)C)OCCCC[C@@H](C)O2 | i | i | i | i
COc1c(C=O)c(O)cc2c1C(=O)c1ccccc1C2=O | + | i | i | i
C[C@@H]1CN([C@@H](C)CO)C(=O)CCCn2nncc2CO[C@@H]1CN(C)C(=O)Nc1ccc(C(C)(C)C)cc1 | i | i | i | i

Next section.
SMILES | Myc binder | mut p53 SMM | STAT3 binder | ID4 SMM
C[C@H]1CN([C@@H](C)CO)C(=O)Cc2cc(NC(=O)Nc3ccc(C(F)(F)F)cc3)ccc2O[C@H]1CN(C)CC1CC1 | i | i | i | i
Cc1noc(C)c1S(=O)(=O)N(C)C[C@@H]1OCCCC[C@@H](C)Oc2ccc(NS(C)(=O)=O)cc2C(=O)N([C@H](C)CO)C[C@H]1C | i | i | i | i
Cc1noc(C)c1S(=O)(=O)N(C)C[C@H]1OCCCC[C@H](C)Oc2ccc(NC(=O)NC(C)C)cc2C(=O)N([C@H](C)CO)C[C@@H]1C | i | i | i | i
C[C@H](CO)N1C[C@H](C)[C@@H](CN(C)Cc2ccncc2)Oc2c(NS(=O)(=O)c3ccc(Cl)cc3)cccc2C1=O | i | i | i | i
C[C@@H]1CCCCO[C@H](CN(C)C(=O)CCC(F)(F)F)[C@H](C)CN([C@H](C)CO)C(=O)c2cc(NS(C)(=O)=O)ccc2O1 | i | i | i | i
N#CCC(=O)Cc1ccccc1[N+](=O)[O-] | i | i | i | i
C[C@H](CO)N1C[C@H](C)[C@H](CN(C)Cc2ccc(C(=O)O)cc2)OCCCC[C@H](C)Oc2ccc(NC(=O)C3CCCCC3)cc2C1=O | i | i | i | i
Cn1c(CC(=O)Nc2ccc(Cl)c(Cl)c2)n[nH]c1=S | i | i | i | i
CCC(C)(NC(C)=O)C(=O)NC(Cc1c[nH]c2ccccc12)C(=O)NC(CCC(N)=O)C(=O)O (configuration not stated) | i | i | i | i
Cc1nnc(SCc2cc(=O)[nH]c(=S)[nH]2)s1 | i | i | i | i
Cc1ccc2c(c1)C(O)(CC(=O)c1cccnc1)C(=O)N2 (configuration not stated) | i | i | i | i
NC(=O)C(Cc1ccccc1)NS(=O)(=O)c1ccc2oc3ccccc3c2c1 (configuration not stated) | i | i | i | i
O=C(OC[C@@H]1[C@H]2c3ccccc3OC1(CO)N=C1SCc3ccccc3CN12)c1ccccc1 | i | i | i | i
C[C@@H]1CN([C@H](C)CO)C(=O)c2cc(NC(=O)CCC(F)(F)F)ccc2O[C@@H](C)CCCCO[C@H]1CN(C)S(=O)(=O)c1ccccc1 | i | i | i | i
Cc1ccc(S(=O)(=O)CCSc2cccc(C(=O)Nc3ccccc3)c2)cc1 | i | i | i | i
CON(C)c1nc(Oc2ccc(=O)[nH]n2)nc(N(C)C)n1 | i | i | i | i
COc1ccc(NC(=O)Nc2ccc3c(c2)CC(=O)N([C@@H](C)CO)C[C@@H](C)[C@@H](CN(C)C(=O)Nc2ccc(C(F)(F)F)cc2)O3)cc1 | i | i | i | nt
COc1cc2c(CCNC(C)=O)c[nH]c2cc1Cl | i | i | i | i
C[C@H](CO)N1C[C@H](C)[C@H](CN(C)C(=O)Cc2ccccc2)OCc2cn(nn2)CCCC1=O | i | i | i | i
CC(C)NC(=O)N(C)C[C@@H]1OCCCC[C@H](C)Oc2ccc(NC(=O)Nc3ccccc3)cc2C(=O)N([C@H](C)CO)C[C@@H]1C | i | i | i | i
C[C@H](CO)N1C[C@H](C)[C@@H](CN(C)S(=O)(=O)c2cccs2)Oc2c(NS(C)(=O)=O)cccc2C1=O | i | i | i | i
C[C@H]1CN([C@@H](C)CO)C(=O)c2cc(NS(=O)(=O)c3ccccc3)ccc2O[C@H]1CN(C)C(=O)NC1CCCCC1 | i | i | i | i
O=C(O)CC(CCc1ccccc1)OC1OC(CO)C(O)C(O)C1O (configuration not stated) | i | i | i | i
C[C@@H]1CN([C@@H](C)CO)C(=O)c2cccc(NC(=O)c3nc4ccccc4s3)c2O[C@H]1CN(C)CC1CC1 | i | i | i | i
C[C@@H]1CN([C@@H](C)CO)C(=O)c2cc(NC(=O)c3ccncc3)ccc2O[C@@H](C)CCCCO[C@@H]1CN(C)C(=O)CCCN(C)C | i | i | i | i
CCCCC/C=C\C/C=C\C/C=C\C/C=C\CCCC(=O)O | i | i | i | i
C[C@H](CO)N1C[C@H](C)[C@H](CN(C)S(=O)(=O)c2cn(C)cn2)Oc2ccc(NC(=O)Nc3ccc4c(c3)OCO4)cc2C1=O | i | i | i | i
COC(=O)C1=NN(C(C)(C)CC(C)=O)C2C(=O)N(C3CCCCC3)C(=O)C12 (configuration not stated) | i | i | i | i
COc1ccc(CN(C)C[C@H]2Oc3c(NC(=O)c4cnccn4)cccc3C(=O)N([C@H](C)CO)C[C@@H]2C)cc1 | i | i | i | i
CC1OC(Oc2cc(O)c3c(=O)cc(-c4ccc(O)cc4)oc3c2C2OC(CO)C(O)C(O)C2O)C(O)C(O)C1O (configuration not stated) | i | i | i | i
CCC(=O)N(Cc1cc2ccccc2[nH]c1=O)c1cccc(C)c1 | i | i | i | i
CNC[C@H]1OCCCC[C@@H](C)Oc2ccc(NS(=O)(=O)c3cccs3)cc2C(=O)N([C@H](C)CO)C[C@H]1C | i | i | i | i
COCCOC(=O)N1C(=O)[C@@]2(c3cc(C#CCNC(N)=O)ccc31)[C@H](c1ccc(OCCO)cc1)N1[C@H](c3ccccc3)[C@H](c3ccccc3)OC(=O)[C@H]1[C@@H]2C(=O)NC[C@H](O)c1ccccc1 | i | i | i | i
CCc1c(C#N)c(SCC(=O)c2c(C)[nH]c3ccccc23)nc2c1C(=O)CC(C)(C)C2 | i | i | i | i
COc1cccc(-c2cnc3c(c2)C(=O)N([C@H](C)CO)C[C@H](C)[C@H](CN(C)Cc2ccc4c(c2)OCO4)O3)c1 | i | i | i | nt
Cc1noc(C)c1S(=O)(=O)N(C)C[C@@H]1OCCCC[C@@H](C)Oc2ccc(NC(=O)Cc3ccccc3)cc2C(=O)N([C@@H](C)CO)C[C@@H]1C | i | i | i | nt
COc1ccc(CN(C)C[C@H]2Oc3ccc(NC(=O)NC4CCCCC4)cc3C(=O)N([C@H](C)CO)C[C@@H]2C)cc1 | i | i | i | i
CC(CCC1(C)C(C)CCC2(CO)C(CO)=CCCC21)CC(=O)O (configuration not stated) | i | i | i | i
C[C@H](CO)N1C[C@H](C)[C@H](CN(C)C(=O)Nc2ccccc2)Oc2c(NS(C)(=O)=O)cccc2C1=O | i | i | i | i
CN(C)c1ccc(NC(=O)CSc2nnc(-c3cnccn3)n2C)cc1 | i | i | i | i
CCCCC/C=C\C/C=C\C(O)CCCCCCC(=O)O (configuration not stated) | i | i | i | i
C[C@@H]1CN([C@H](C)CO)C(=O)c2cc(N(C)C)ccc2O[C@@H]1CN(C)C(=O)Nc1ccc(F)cc1 | i | i | i | i
CC(C)NC(=O)Nc1ccc2c(c1)C(=O)N([C@@H](C)CO)C[C@H](C)[C@@H](CN(C)S(=O)(=O)c1ccccc1)OCCCC[C@H](C)O2 | i | i | i | i
CCOC(=O)c1cnc2c(C(=O)OC)cccc2c1NCc1ccco1 | i | i | i | i
CC(C)NC(=O)N(C)C[C@H]1OCCCC[C@H](C)Oc2ccc(N(C)C)cc2C(=O)N([C@@H](C)CO)C[C@H]1C | i | i | i | i
COc1ccc(NC(=O)CN2CCOCC2)c([N+](=O)[O-])c1 | i | i | i | i
Nc1nc(CSc2nnnn2-c2ccccc2)nc(N2CCCc3ccccc32)n1 | i | i | i | i
CC(=O)n1cc([C@@H]2C=C(C(=O)NCc3nc4ccccc4[nH]3)O[C@H](OCCCCO)C2)c2ccccc21 | i | i | i | i
Cc1cc(C)c(C2C(C#N)=C(N)Oc3n[nH]c(C)c32)cc1CN1CCOCC1 (configuration not stated) | i | i | i | i
C[C@@H]1CCCCO[C@@H](CN(C)C(=O)C2CCCCC2)[C@@H](C)CN([C@@H](C)CO)C(=O)c2cc(NS(C)(=O)=O)ccc2O1 | i | i | i | i

A different layout for part of the listing above.
Values run as follows: Myc binder, mut p53 SMM, STAT3 binder, ID4 SMM
Cc1cc(C)c(C2C(C#N)=C(N)Oc3n[nH]c(C)c32)cc1CN1CCOCC1 (configuration not stated)
→ i, i, i, i
C[C@@H]1CCCCO[C@@H](CN(C)C(=O)C2CCCCC2)[C@@H](C)CN([C@@H](C)CO)C(=O)c2cc(NS(C)(=O)=O)ccc2O1
→ i, i, i, i
